ClpP mod: qHTS Assay for Activators of ClpP; Potency, µM (top dose mostly 57.5 µM), without a hit: top-dose activity change, negative = active; 1.9% of 340,000 active; purified B. subtilis ClpP, FRET peptide cleavage, 20 min; ATP-dependent Clp protease proteolytic subunit (Bacillus subtilis (strain 168)), P80244; active = well fitted falling curve with a large enough effect; inconclusive = small, poorly fitted or top-dose-only effect; inactive = no such curve, though single readings can be large or run the other way; also: potency is read from the fitted curve at half-maximal effect; the source files actives as falling curves though it sought activators and does not explain the sign; nearly all actives have a fitted effect of over 65% in size; many hits overshoot -100%
Target sequence (P80244 whole entry, looked up): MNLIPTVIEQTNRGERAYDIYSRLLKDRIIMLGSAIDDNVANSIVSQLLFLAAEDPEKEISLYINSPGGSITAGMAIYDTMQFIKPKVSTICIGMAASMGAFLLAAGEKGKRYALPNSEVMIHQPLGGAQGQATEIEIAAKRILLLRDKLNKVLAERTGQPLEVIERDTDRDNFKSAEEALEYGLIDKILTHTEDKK
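Buffer: 100 mM Tris/HCl pH8, 100 mM KCl, 0.05% low protease BSA, 2.5% glycerol, 0.01% Tween-20. ClpP 10 microg/mL final; 20 min RT; delta FRET normalized to ADEP and DMSO controls.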
gsp ag: qHTS for Agonist of gsp, the Etiologic Mutation Responsible for Fibrous Dysplasia/McCune-Albright Syndrome: qHTS | gsp mutant cells, cAMP HTRF, 30 min; control for the full effect not named in the record | Potency, µM (top dose mostly 76.9 µM), for inactives: at the top dose activation (cAMP increase), most hits filed as activators | 0.13% of 340,000 active | AID 624287, 2012; active = well fitted activation curve with a large enough effect; inconclusive = small, poorly fitted or top-dose-only effect, or another doubt; inactive = no such curve, though single readings can be large or run the other way; cell line not stated here;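 also: phosphodiesterase inhibitor Ro 20-1724 added with compounds to block cAMP breakdown; potency is read from the fitted curve at half-maximal effect; nearly all actives have a fitted effect of over 60% in size; about a fifth of the inactives were tested at one dose only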
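Cells in DMEM/10% FBS with G418 were pretreated with compounds in DMSO plus […] (300 uM stock) for 30 min at 37C. cAMP was measured by HTRF (cAMP-d2 plus anti-cAMP antibody-K) after 30 min at room temperature.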
TRPV1 potentiator: HTS Assay for Compounds that Act as Potentiators of the Vanilloid Receptor 1. TRPV1-expressing cells, Fluo-8 calcium influx, capsaicin EC20 potentiation; host cell line not named in the record; control for the full effect not named in the record. Transient receptor potential cation channel subfamily V member 1 (Homo sapiens), Q8NER1. 0.02% of 320,000 active. potentiation, % at 8.33 µM. AID 540277, 2011; active means potentiation above 80%; inconclusive means 30% to 80%; inactive means below 30%; also: 0% is about no effect
Target sequence (Q8NER1 whole entry, looked up): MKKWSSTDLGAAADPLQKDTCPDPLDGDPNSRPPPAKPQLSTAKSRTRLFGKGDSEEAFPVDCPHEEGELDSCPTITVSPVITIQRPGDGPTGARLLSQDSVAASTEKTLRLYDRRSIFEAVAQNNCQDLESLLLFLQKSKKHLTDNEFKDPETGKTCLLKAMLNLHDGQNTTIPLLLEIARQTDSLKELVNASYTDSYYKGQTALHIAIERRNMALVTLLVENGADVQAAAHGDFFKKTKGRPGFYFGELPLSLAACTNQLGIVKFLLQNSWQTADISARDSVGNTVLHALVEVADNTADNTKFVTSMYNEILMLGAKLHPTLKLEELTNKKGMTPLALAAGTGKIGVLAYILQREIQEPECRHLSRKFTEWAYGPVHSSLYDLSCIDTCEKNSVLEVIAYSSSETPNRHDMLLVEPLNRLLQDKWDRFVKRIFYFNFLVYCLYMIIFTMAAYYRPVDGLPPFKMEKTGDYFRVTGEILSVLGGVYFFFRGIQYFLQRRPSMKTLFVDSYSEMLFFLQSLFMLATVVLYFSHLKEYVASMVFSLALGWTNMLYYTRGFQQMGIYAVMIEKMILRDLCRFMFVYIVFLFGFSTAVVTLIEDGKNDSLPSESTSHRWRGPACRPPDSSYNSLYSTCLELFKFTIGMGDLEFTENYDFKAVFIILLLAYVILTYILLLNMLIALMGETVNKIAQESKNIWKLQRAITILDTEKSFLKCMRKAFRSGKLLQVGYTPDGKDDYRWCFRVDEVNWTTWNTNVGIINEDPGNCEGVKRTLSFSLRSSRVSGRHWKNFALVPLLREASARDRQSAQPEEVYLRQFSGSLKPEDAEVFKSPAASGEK
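Cells expressing TRPV1 were dye-loaded with Fluo-8 and read kinetically: 10 s baseline, 3 min after compound (agonist portion), then 2 min after EC20 capsaicin (allosteric enhancer portion). Calcium-bound dye fluorescence at 480/520 nm.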
Menin MLL FP FL: qHTS Assay for Inhibitors Targeting the Menin-MLL Interaction in MLL Related Leukemias: Competition With Fluorescein Labeled MLL-derived Peptide; Fluorescence polarization, fluorescein-MLL peptide displacement from menin; FP activity change, % at 61.4 µM; 290,000 tested, under 10 active; AID 1766, 2009; inconclusive = falling polarisation curve, or a change in total fluorescence; inactive = total fluorescence flat and polarisation flat or rising; no compound was filed as active; the % refers to the polarisation; negative = inhibition;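 also: % of control where 0% means no effect; inhibitors lower the polarisation; unlabelled MLL peptide was the positive control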
D2 potentiator: Beta-Arrestin HTS for Positive Allosteric Modulators of the Human D2 Dopamine Receptor: Potentiators; D(2) dopamine receptor (Homo sapiens), P14416; DiscoveRx D2 beta-arrestin cells, luminescence, 90 min; 100% = 57 uM dopamine signal; potentiation, % (no concentration beside the values); 0.23% of 360,000 active; active = potentiation of 50% or more; inconclusive = 30% to 50%; inactive = 30% or less;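 also: compound concentration not given in the record; tested on top of an EC20 dose of dopamine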
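PathHunter beta-arrestin assay in DiscoveRx D2 cells. Compounds were added with an EC20 of dopamine (50 nM final) for 90 min at 37 deg C. Luminescence was read 1 h after detection reagent, with 57 uM dopamine as the EC100 control.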
gsp antagonist: qHTS for Antagonists of gsp, the Etiologic Mutation Responsible for Fibrous Dysplasia/McCune-Albright Syndrome: qHTS; gsp-mutant cells, cAMP HTRF, 30 min; control for the full effect not named in the record; Potency, µM (series often up to 76.9 µM), for the others: top-dose activity change, negative = inhibition, usual class: inhibitors; 0.4% of 340,000 active; AID 624288, 2012; active = falling curve of any shape with a large fitted effect; inconclusive = falling curve, mostly with a smaller effect; inactive = flat or rising curve; cell line not stated here;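 also: intracellular cAMP measured with PDE inhibitor Ro 20-1724 present during compound exposure; potency is read from the fitted curve at half-maximal effect; % is scaled to controls: 0 for no effect and ±100 for the full control effect; nearly all actives have a fitted effect of over 65% in size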
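G418-selected cells were plated in DMEM/10% FBS for 16-24 h at 37C, then treated with compounds plus the PDE inhibitor […] (300 uM solution added) for 30 min at 37C. Intracellular cAMP was measured by HTRF after 30 min lysis at room temperature.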
Sfp inh: qHTS Assay for Inhibitors of Bacillus subtilis Sfp phosphopantetheinyl transferase (PPTase) | 4'-phosphopantetheinyl transferase ffp (Bacillus subtilis), Q9F4F7 | Biochemical Sfp PPTase activity, qHTS | Potency, µM, inactives show max response, negative = inhibition, usual class: inhibitors | 3.5% of 310,000 active; active = well fitted inhibition curve with a large enough effect; inconclusive = small, poorly fitted or top-dose-only effect, or another doubt; inactive = no such curve, though single readings can be large or run the other way;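 also: the enzyme is Sfp with the accession as filed and its product quenches rhodamine fluorescence; potency is read from the fitted curve at half-maximal effect; 0% = enzyme reaction without inhibitor and -100% = no enzyme wells; top concentration of the series not given in the record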
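Step 1, compound plus 15 nM Sfp-PPTase, 15 min, room temperature. Step 2, add rhodamine-CoA (5 uM) and BHQ-2-YbbR (12.5 uM). Step 3, read 525/598 nm fluorescence at 0 and 30 min.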
An asterisk follows results filed as active; & = joins results of further samples; [ ] = dose if it differs, or a comment.

Start of the listing, in advance (two entries):
For COc1ccccc1NC(=O)CSc1nnc(-c2ccoc2C)n1C the results were gsp ag 33%[15.4 µM], TRPV1 potentiator 4, Menin MLL FP FL 1.3, D2 potentiator -1, gsp antagonist -1% and Sfp inh 9%.
Screening COc1ccc(S(=O)(=O)N(C)CC(=O)Nc2ccccc2OC)cc1C returned ClpP mod -1.7%, gsp ag -7%, TRPV1 potentiator 6, Menin MLL FP FL -1.0, D2 potentiator -21, gsp antagonist 0% and Sfp inh 7%.

The list itself, from the first entry:
For COc1ccccc1NC(=O)CSc1nnc(-c2ccoc2C)n1C the results were gsp ag 33%[15.4 µM], TRPV1 potentiator 4, Menin MLL FP FL 1.3, D2 potentiator -1, gsp antagonist -1% and Sfp inh 9%.
Screening COc1ccc(S(=O)(=O)N(C)CC(=O)Nc2ccccc2OC)cc1C returned ClpP mod -1.7%, gsp ag -7%, TRPV1 potentiator 6, Menin MLL FP FL -1.0, D2 potentiator -21, gsp antagonist 0% and Sfp inh 7%.
`COc1ccc(Nc2oc(-c3ccco3)nc2S(=O)(=O)c2ccc(F)cc2)cc1` gave ClpP mod inconclusive, gsp ag -1%, TRPV1 potentiator -17, Menin MLL FP FL 3.4, D2 potentiator -10, gsp antagonist 29% and Sfp inh -2%.
COc1ccc(-n2c(Cc3cccn3C)nnc2SCC(=O)Nc2ccc(Cl)cc2)cc1 was read as ClpP mod 2.7%, gsp ag -37%[inhibitor], TRPV1 potentiator 1, Menin MLL FP FL 0.2, D2 potentiator 2, gsp antagonist inconclusive and Sfp inh 16%.
`O=C(c1snnc1-c1ccccc1)N1CCOCC1` gave ClpP mod 0.2%, gsp ag -4%, TRPV1 potentiator -2, Menin MLL FP FL 4.1, D2 potentiator -4, gsp antagonist 10% and Sfp inh 8%.
CCOc1ccc(C(C)C)cc1S(=O)(=O)Nc1ccc(Cl)cn1 was read as ClpP mod -2.8%, gsp ag -8%, TRPV1 potentiator 14, Menin MLL FP FL 1.6, D2 potentiator 6, gsp antagonist 8% and Sfp inh -5%.
Cc1ccc2nc3c(c(Nc4cccc(O)c4)c2c1)CCC3 was read as ClpP mod -1.3%, gsp ag 5%, TRPV1 potentiator 10, Menin MLL FP FL 2.7, D2 potentiator -23, gsp antagonist 3% and Sfp inh -2%.
Screening O=c1c(-c2ccccc2)coc2c(CN3CCCCC3)c(O)ccc12 returned ClpP mod 3.8%, gsp ag 27%, TRPV1 potentiator -2, Menin MLL FP FL -8.5, D2 potentiator -3, gsp antagonist 4% and Sfp inh 16%.
`Cc1ccc2oc(C(=O)NCc3ccc4c(c3)OCO4)c(C)c2c1` gave ClpP mod 3.5%, gsp ag 8%, TRPV1 potentiator 24, Menin MLL FP FL 0.2, D2 potentiator -10, gsp antagonist -1% and Sfp inh -10%.
`O=C(Nc1ccc(S(=O)(=O)N2CCCC2)cc1)c1ccc(OCC2CCCO2)cc1` (stereo unspecified) gave ClpP mod -6.7%, gsp ag 18%[15.4 µM], TRPV1 potentiator 8, Menin MLL FP FL 2.1, D2 potentiator -16, gsp antagonist -22% and Sfp inh 10%.
For COc1ccc(C(=O)OCc2ccccc2F)cc1S(=O)(=O)N1CCCC1 the results were ClpP mod -2.6%, gsp ag -36%[inhibitor], TRPV1 potentiator 6, D2 potentiator -4 and gsp antagonist -21%.
Screening C=CCNC(=O)C1(S(=O)(=O)c2ccccc2)CC=CC1 returned ClpP mod 2.6%, TRPV1 potentiator 8, Menin MLL FP FL -1.1, D2 potentiator -5, gsp antagonist 13% and Sfp inh 16%.
Screening COCc1c(C#N)c(NCCc2ccc(F)cc2)nc(C)c1[N+](=O)[O-] returned ClpP mod -3.2%, gsp ag -8%, TRPV1 potentiator -2, Menin MLL FP FL 5.0, D2 potentiator 8, gsp antagonist -13% and Sfp inh 6%.
CCSc1ncccc1-c1nc2ccccc2[nH]1 was read as ClpP mod -18%, gsp ag 5%, TRPV1 potentiator 17, Menin MLL FP FL 2.0, D2 potentiator -10, gsp antagonist 3% and Sfp inh 2%.
Screening CN(C)c1ccc(N=Nc2cccc3ccoc23)cc1 returned ClpP mod 1.5%, gsp ag -16%, TRPV1 potentiator -2, Menin MLL FP FL 8.3, D2 potentiator -12, gsp antagonist -8% and Sfp inh 45µM*.
Screening O=C(Nc1ccccc1[N+](=O)[O-])c1cncc(Br)c1 returned ClpP mod -0.5%, gsp ag 38%, TRPV1 potentiator 2, Menin MLL FP FL -0.2, D2 potentiator 1, gsp antagonist -2% and Sfp inh 4%.
`C/C(=N\Nc1cc(N2CCOCC2)nc(C)n1)c1cccc([N+](=O)[O-])c1` gave ClpP mod 2.0%, gsp ag -4%, TRPV1 potentiator -4, Menin MLL FP FL -5.8, D2 potentiator 0, gsp antagonist -6% and Sfp inh -8%.
Screening CCn1c(S(=O)(=O)O)nc2ccccc21 returned ClpP mod -3.0%, gsp ag -2%, TRPV1 potentiator -1, Menin MLL FP FL 1.0, D2 potentiator -5, gsp antagonist 7% and Sfp inh 7%.
Screening COc1ccc(/C=C(/C#N)C(=O)Nc2cccc(C)c2C)cc1C(=O)O returned ClpP mod -2.7%, gsp ag inconclusive, TRPV1 potentiator -32, Menin MLL FP FL -1.1, D2 potentiator -5, gsp antagonist -3% and Sfp inh 16%.
Cc1nnc(NCCN2CCOCC2)[nH]c1=O was read as ClpP mod -1.3%, gsp ag -12%, TRPV1 potentiator -5, Menin MLL FP FL -0.9, D2 potentiator 4, gsp antagonist 6% and Sfp inh 17%.
`COc1cc(S(=O)(=O)n2ccc(C)n2)ccc1Cl` gave gsp ag -1%, TRPV1 potentiator 0, Menin MLL FP FL 1.3, D2 potentiator -4, gsp antagonist 0% and Sfp inh 7%.
CCc1cccc(NS(=O)(=O)c2ccc(-n3cccn3)cc2)c1 was read as ClpP mod 0.7%&-1.0%, gsp ag 3%, TRPV1 potentiator 7, Menin MLL FP FL 2.0, D2 potentiator -2, gsp antagonist -11% and Sfp inh 15%.
Screening c1cncc(CNc2ncn[nH]2)c1 returned ClpP mod -2.8%, gsp ag -20%, TRPV1 potentiator -2, Menin MLL FP FL 0.3, D2 potentiator -1, gsp antagonist 16% and Sfp inh 23%.
Screening Cc1cc2n(n1)C(c1ccsc1)Nc1ccccc1-2 (stereo unspecified) returned ClpP mod inconclusive, gsp ag 23%, TRPV1 potentiator 17, Menin MLL FP FL -0.1, D2 potentiator -4, gsp antagonist -8% and Sfp inh -19%.
Cn1ncc(Cl)c1C(=O)NC1C2CC3CC(C2)CC1C3 (stereo unspecified) was read as ClpP mod 0.2%, gsp ag 2%, TRPV1 potentiator -3, Menin MLL FP FL -0.2, D2 potentiator -2, gsp antagonist -2% and Sfp inh 22%.
Screening COc1ccc(-c2[nH]ncc2/C=N\NC(=O)c2ccc(C(C)(C)C)cc2)cc1OC returned ClpP mod 1.0%, gsp ag -1%[15.4 µM], TRPV1 potentiator 16, Menin MLL FP FL -1.7, D2 potentiator -9, gsp antagonist -9% and Sfp inh -2%.
Screening CCCNC(=O)Cn1c(=O)oc2cc(S(=O)(=O)N3CC(C)CC(C)C3)ccc21 (stereo unspecified) returned ClpP mod -3.6%, gsp ag -3%, TRPV1 potentiator -12, D2 potentiator -6, gsp antagonist 0% and Sfp inh 11%.
`CC(=O)c1ccccc1OCCCOc1cccc2cccnc12` gave ClpP mod -5.3%, gsp ag -7%, D2 potentiator 77* and gsp antagonist -8%.
For COc1ccccc1-c1c(C(F)(F)F)oc2cc(OC(=O)c3ccc([N+](=O)[O-])cc3)ccc2c1=O the results were ClpP mod 0.6%, gsp ag 11%[15.4 µM], TRPV1 potentiator -7, Menin MLL FP FL -5.0, D2 potentiator -1, gsp antagonist -16% and Sfp inh 11%.
Cc1cccc(C(=O)Nc2sc(C(=O)N3CCCC3)c(C)c2C#N)c1 was read as ClpP mod 0.6%, gsp ag 7%, TRPV1 potentiator -4, Menin MLL FP FL 6.7, D2 potentiator -9, gsp antagonist 32µM* and Sfp inh 6%.
CC(C)C(=O)Nc1ccc2c(c1)nc(CCN1CCN(c3ccccc3)CC1)n2C was read as ClpP mod -0.6%, gsp ag -22%, TRPV1 potentiator 4, Menin MLL FP FL 0.3, D2 potentiator -9, gsp antagonist 0% and Sfp inh 7%.
For CC(=O)Nc1ccc(NC(=O)c2oc3cc(C)c(C)cc3c2C)cc1 the results were ClpP mod 5.3%, gsp ag inconclusive, TRPV1 potentiator 10, Menin MLL FP FL 1.0, D2 potentiator -5, gsp antagonist -1% and Sfp inh 5%.
For Cc1c(NC(=O)c2cnn3cccnc23)c(=O)n(-c2ccccc2)n1C the results were ClpP mod -3.8%, gsp ag 3%, TRPV1 potentiator -5, Menin MLL FP FL 1.7, D2 potentiator -24, gsp antagonist 11% and Sfp inh 15%.
C[C@@H]1CN([C@H](C)CO)C(=O)CCCn2cc(nn2)CO[C@H]1CN(C)C(=O)Nc1ccc(C(F)(F)F)cc1 was read as ClpP mod 1.1%, gsp ag 18% and D2 potentiator -2.
CCN(CC)C(=O)CSc1nc2ncccc2[nH]1 was read as ClpP mod -6.5%, gsp ag -36%, TRPV1 potentiator 1, Menin MLL FP FL 9.4, D2 potentiator -9, gsp antagonist 9% and Sfp inh 1%.
Screening CCCCCCc1ccc(N2C[C@H](Cc3ccccc3)[C@@H](CC(=O)Nc3ccccc3)C2=O)cc1 returned ClpP mod -4.1%&-0.4%, TRPV1 potentiator -1, Menin MLL FP FL 7.4, D2 potentiator -24, gsp antagonist 8% and Sfp inh 13%.

Compound activity deposited in PubChem by National Center for Advancing Translational Sciences (NCATS).
